LANA-H2A inh = blocks KSHV LANA binding to histone H2A/H2B; cell-free LANA-H2A/H2B peptide, fluorescence polarization; inhibition, % (no concentration beside the values); 320,000 compounds, 0.6% hits; in the data active = inhibition mostly above about 10%, no sharp cut-off; inactive = mostly below about 6.7%;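 also: stock transfer was 7.5 nL into about 10 µL; 0% = median of vehicle wells and 100% = median of positive control wells; one replicate is shown; the record names a cut of 25% in any replicate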
Beta2AR agonist = activates human beta-2 adrenergic receptor causing internalization; P07550; 340,000 compounds, 0.43% hits; AID 504454; Am2.2-beta2AR cells, FAP receptor internalization, flow cytometry; reference of the scale not given here; response, % (no concentration beside the values);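 active = response above a set limit, near 3 SD of response in nonfluorescent compounds, cut at about 42% in these data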;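 also: stock transfer was 100 nL into about 11 µL; a reference agonist was the positive control; negative values mostly stem from fluorescent compounds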
Target sequence (P07550 whole entry, looked up): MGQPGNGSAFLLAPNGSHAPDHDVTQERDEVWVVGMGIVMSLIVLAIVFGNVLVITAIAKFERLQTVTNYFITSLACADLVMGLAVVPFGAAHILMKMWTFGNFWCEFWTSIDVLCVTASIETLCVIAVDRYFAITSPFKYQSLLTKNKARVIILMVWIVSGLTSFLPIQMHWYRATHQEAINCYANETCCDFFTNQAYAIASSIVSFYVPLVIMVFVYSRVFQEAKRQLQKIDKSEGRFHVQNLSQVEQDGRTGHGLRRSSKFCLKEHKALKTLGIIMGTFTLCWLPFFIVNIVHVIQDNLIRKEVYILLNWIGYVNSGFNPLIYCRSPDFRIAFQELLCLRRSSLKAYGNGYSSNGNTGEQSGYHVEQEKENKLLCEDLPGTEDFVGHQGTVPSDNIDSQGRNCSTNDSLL
T cruzi inh = T. cruzi replication inhibition; inhibition, % (no concentration beside the values); 300,000 compounds, 1.4% hits; T. cruzi beta-gal in NIH3T3, luminescence, 90 h;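 active = mean inhibition across valid replicates above about 55%, limit read from the data; inconclusive = mean below that limit but half or more replicates reach it; inactive = mean below it, under half of replicates reach it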;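 also: signal also drops with host cell toxicity which is not excluded here; 0% = plate median of DMSO wells and 100% = zero luminescence signal; higher percent means less beta-gal luminescence so fewer parasites; stock transfer was 50 nL into about 50 µL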
RanGTP-Impb inh = disruptors of Ran-importin-beta complex formation – biochemical, FRET, CFP-Ran, YFP-importin-beta, homogeneous, primary screen; cell-free CFP-Ran/YFP-importin-beta FRET ratio; inhibition, % (concentration not given with the values); 300,000 compounds, 1.1% hits;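 active = most replicates above 15%; inconclusive = exactly half above 15%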;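 also: 0% = DMSO wells and 100% = Ran loaded with GDP instead of GTP; wells of about 40 µL received 100 nL stock; the first replicate is given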
A1 inh = inhibitors of the anti-apoptotic protein A1, read as caspase activation; MEF A1-2A-BIM cells, Caspase-Glo 3/7 luminescence, 3 h; percent of clofoctol response, vehicle zero; caspase activation, % (test concentration not listed); 330,000 compounds, 0.066% hits;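 active = over half of replicate activation scores above 10%, or exactly half above 10 with the replicate mean above 10; inconclusive = replicate mean below 10 yet half the replicates above 10; inactive = over half of replicates below 10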;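 also: wells of about 30 µL received 50 nL stock; many hits fall short of the cut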
Beta apoptosis = blocks beta cell apoptosis | INS-1E cytokine-induced death, ATP luminescence, 48 h; percent of positive-control rescue, neutral wells zero | protection from apoptosis, % (concentration not given with the values) | 300,000 compounds, 0.8% hits;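 active = all replicates at 75% or more, or half of them and the mean; inconclusive = half reach 75% but not the mean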;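 also: 0% = cytokine-treated negative control wells and 100% = positive control rescue; higher means more ATP so stronger rescue from cytokine killing; wells of about 40 µL received 100 nL stock; the first replicate is given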
Calb FLC = C. albicans growth modulation with fluconazole. C. albicans CaCi-2 (fluconazole-resistant clinical isolate) + fluconazole, Alamar Blue growth, 48 h. growth inhibition, % (test concentration not listed). 300,000 compounds, 0.57% hits;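 active = most replicates above 75%; inconclusive = exactly half above 75%; inactive = most below 75%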;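 also: all wells also contain fluconazole at 8 µg/ml as a sub-toxic cotreatment; 0% = median of DMSO wells and 100% = median of geldanamycin control wells; wells of about 8 µL received 7.5 nL stock; the first replicate is given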
UCH37 DUB inh = blocks the human deubiquitinase UCH37; purified proteasome/UCH37, Ub-AMC cleavage fluorescence; Q9Y5K5; AID 588478; inhibition, % (no concentration beside the values); 330,000 compounds, 0.33% hits;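 active = mean of two replicates above 20%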;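 also: 0% = compound-free wells with enzyme and 100% = wells lacking proteasome; stock transfer was 100 nL into about 20 µL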
Target sequence (Q9Y5K5 whole entry, looked up): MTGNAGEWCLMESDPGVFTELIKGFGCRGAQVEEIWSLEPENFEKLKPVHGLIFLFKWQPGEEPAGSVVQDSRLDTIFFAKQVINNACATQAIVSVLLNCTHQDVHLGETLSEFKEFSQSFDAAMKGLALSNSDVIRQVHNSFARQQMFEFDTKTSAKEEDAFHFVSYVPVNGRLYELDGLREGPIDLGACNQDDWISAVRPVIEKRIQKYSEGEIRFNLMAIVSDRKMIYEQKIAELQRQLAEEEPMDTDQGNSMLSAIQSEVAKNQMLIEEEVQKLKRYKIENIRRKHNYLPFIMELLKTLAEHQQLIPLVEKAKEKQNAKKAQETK
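Material: Human UCH37 enzyme supplied as purified proteasome complex | Schedule: 30 min compound-proteasome preincubation then 25 min substrate reaction, room temperature | Detection: AMC fluorescence from Ub-AMC cleavage, excitation 355 nm, emission 460 nm | Benchmarks: Wells without proteasome as full block, compound-free enzyme plus substrate as uninhibited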
Active calls of the source: *; i = inactive; ? = inconclusive; . = no result given.

SMILES	LANA-H2A inh	Beta2AR agonist	T cruzi inh	RanGTP-Impb inh	A1 inh	Beta apoptosis	Calb FLC	UCH37 DUB inh
CCOP(=O)(OCC)c1nc(-c2ccc(Cl)cc2)oc1NCc1ccccc1	2.1	5	11	-2.3	-0.6	3	33	-149
N#CCSc1n[nH]c2nc3c(c(=O)n12)C1(CCCCC1)Cc1ccccc1-3	-6.7	-1	9	7.2	-0.2	-1	-1	-75
O=C1COc2ccc(S(=O)(=O)NCCc3ccccc3)cc2N1	-5.2	4	2	5.3	-0.1	-4	4	3.1
CCN1CCCC1CNC(=O)C(=O)NC (stereo not given)	.	-6	-16	-0.8	-0.6	-2	14	2.9
Cc1nn(Cc2ccc(Cl)cc2)c(C)c1NC(=O)c1noc2c1CCc1ccccc1-2	1.3	-4	4	0.0	0.2	-6	1	1.7
COc1ccc(C)cc1NCc1cc(=O)oc2cc(-c3ccccc3)c(O)cc12	-2.2	-1	-10	-1.7	-2.9	0	-2	4.2
Cc1nc(C(C)N(C)Cc2c(C(=O)N3CCCCC3)nc3c(C)cccn23)c(C)s1 (stereo not given)	1.3	7	6	-0.7	0.1	4	-13	2.5
CCOc1ccc(N2C(=O)c3cccnc3C2Nc2ccc(C)cc2)cc1 (stereo not given)	2.6	-15	-3	-1.9	0.4	1	1	4.3
O=C(Nc1cccc(Cl)c1)c1ccncc1	5.1	7	4	-0.9	-0.8	-8	-10	0.9
CCCS(=O)(=O)N1CCCC(C(=O)NCCN(CC)CC)C1 (stereo not given)	-1.3	1	-6	0.2	0.2	-5	-23	3.5
CC(OC(=O)c1cccnc1)C(=O)NCc1ccc2c(c1)OCO2 (stereo not given)	-0.9	-2	-17	1.0	-1.2	-5	-3	0.3
CC(C)c1ccc(NC(=O)c2cccc(Br)c2)cc1	7.1	5	34	-2.5	-4.6	3	-13	-0.2

3 consecutive records already listed, for reference:
SMILES	LANA-H2A inh	Beta2AR agonist	T cruzi inh	RanGTP-Impb inh	A1 inh	Beta apoptosis	Calb FLC	UCH37 DUB inh
CCCS(=O)(=O)N1CCCC(C(=O)NCCN(CC)CC)C1 (stereo not given)	-1.3	1	-6	0.2	0.2	-5	-23	3.5
CC(OC(=O)c1cccnc1)C(=O)NCc1ccc2c(c1)OCO2 (stereo not given)	-0.9	-2	-17	1.0	-1.2	-5	-3	0.3
CC(C)c1ccc(NC(=O)c2cccc(Br)c2)cc1	7.1	5	34	-2.5	-4.6	3	-13	-0.2

Next section:
SMILES	LANA-H2A inh	Beta2AR agonist	T cruzi inh	RanGTP-Impb inh	A1 inh	Beta apoptosis	Calb FLC	UCH37 DUB inh
CCN(CCN1CCCC1)C(=O)c1cc(COc2ccccc2SC)on1	2.3	-5	27	3.4	0.1	-3	-14	.
Cc1ccoc1C(=O)NCc1occc1C(=O)O	2.8	-1	-1	0.1	-0.4	-4	-3	4.2
O=C(CNC(=O)OCc1ccccc1)NCC(=O)N1CCCC1C(=O)OCc1ccccc1 (stereo not given)	6.2	-4	-2	-3.0	0.4	0	-10	-0.3
O=C(NCC1CCCO1)c1cccc(Oc2c(Cl)cccc2[N+](=O)[O-])c1 (stereo not given)	4.6	0	-5	6.3	-0.3	8	-1	-0.4
COc1ccc(NC(=S)NCCC(c2ccccc2)c2ccccc2)c(OC)c1	2.1	-4	-6	7.7	0.0	0	-13	1.2
CCOC(=O)c1c(C)c(C(=O)NC(C)COC)c(C)n1CC (stereo not given)	-3.1	-3	-22	6.7	-0.3	-9	-13	1.0
CC(=O)Nc1cccc(C(=O)Nc2cccc(S(=O)(=O)NCc3ccco3)c2)c1	-2.1	3	.	.	0.0	1	.	-0.2
COc1cc(Nc2c3c(nc4ccccc24)CCC3)cc(OC)c1OC	-0.8	16	16	-1.6	0.2	9	-2	12
OC(COc1c(F)cc(Br)cc1F)CN1CCc2ccccc2C1 (stereo not given)	1.6	8	22	3.0	1.2	-2	-5	6.0
O=C(CSc1nnc(-c2ccccc2)o1)c1nnc(-c2ccccc2)o1	-4.3	2	-4	-1.4	-0.2	-1	11	3.2
O=C1C(Cl)=C(N2CCOCC2)C(=O)N1c1ccc(Br)cc1	-1.4	7	-1	8.1	-1.0	-5	-4	1.0
CN(C)c1ccc(O)c2c1CC1CC3C(N(C)C)C(=O)C(C(N)=O)=C(O)[C@@]3(O)C(=O)C1=C2O (stereo not given in full)	1.3	-2	9	-2.4	-0.4	-11	.	1.2
CN(C)CCCN(Cc1ccccc1)C(=S)NCc1ccccc1	2.9	0	-8	5.6	-0.2	0	-7	3.4
COC(=O)C1=CN(C(C)c2ccccc2)C=C(C(=O)OC)C1c1cc(OC)c(OC)c(OC)c1 (stereo not given)	0.3	9	35	14	-0.8	3	3	-261
C=CCNc1nc(C2(C)CC3(CC(C)OC3=O)C(=O)O2)cs1 (stereo not given)	6.0	-2	-2	1.9	-0.7	-2	-38	2.4
C[C@H](NC(=O)c1nc[nH]c1C(=O)NCC(=O)OC(C)(C)C)c1ccccc1	-3.6	-6	1	-4.8	-0.3	-1	-6	1.2
O=C(CCNC(=O)c1ccc(Cl)cc1)NN1C(=O)NC2(CCCCC2)C1=O	-0.9	1	.	.	0.9	-1	.	3.6
O=C(Nc1ccc(OC(F)F)c(Cl)c1)c1ccccn1	-1.9	-2	-2	3.2	-3.7	6	45	-1.8
COc1cccc(CNC(=S)Nc2cc(C)cc(C)c2)c1	-1.1	3	-39	-3.5	0.9	0	-30	2.7
Cc1sc2nc(C3CC3)nc(NCCNS(C)(=O)=O)c2c1C	-0.3	-3	-10	-1.5	0.0	-3	9	1.2
O=C(NS(=O)(=O)c1ccccc1[N+](=O)[O-])c1ccccc1	2.7	5	-4	1.3	2.2	-5	3	-0.9
O=C(O)CSCC(=O)Nc1ccc(C2CCCCC2)cc1	-0.2	3	-9	1.1	0.1	-4	8	1.6
COc1ccc(O)c(CN2CCCC(N3CCN(c4ccccc4OC)CC3)C2)c1 (stereo not given)	1.1	-8	5	2.2	-0.1	-1	-4	1.6
Cc1cc(=O)oc2cc(OCc3ccc(C(=O)OCC(=O)N(C)C4CCS(=O)(=O)C4)cc3)ccc12 (stereo not given)	6.7	2	9	0.6	-1.6	2	4	-41
Nc1nc(NCCCN2CCOCC2)nc(NCc2ccccc2)c1[N+](=O)[O-]	3.1	-4	-18	7.5	0.1	-3	9	11
CCc1ccccc1Nc1nc2ccccc2n1C	1.5	-6	-7	2.8	-0.2	22	-7	2.4
NC(=O)CS(=O)(=O)c1nc2ccccc2n1Cc1ccccc1F	4.6	3	8	-5.1	-0.7	-12	3	2.0
CC1(C)CC(CC(=O)O)C(=O)O1 (stereo not given)	1.5	-1	-13	-0.5	.	-5	-5	-1.1
COc1ccc(C(=O)c2cn[nH]c2-c2cc(C)ccc2O)cc1	1.6	-5	-2	2.0	-0.7	-14	35	0.9
O=C(CN(C1CCCCC1)S(=O)(=O)c1ccc(F)cc1)NC1CC1	8.8	7	-5	1.4	1.2	1	-2	2.7
COC(=O)c1cccc(NC(=O)CN2CCN(Cc3ccccc3)CC2)c1	5.3	-2	14	-2.1	0.7	2	0	5.8
COc1cc(C(C(=O)NC2CCCCC2)N(C(=O)c2cnccn2)c2ccccc2)cc(OC)c1OC (stereo not given)	.	-15	5	2.2	.	.	-6	0.9
N=c1c(C(=O)NC2CCCC2)cc2c(=O)n3ccccc3nc2n1Cc1ccccc1	-1.1	-13	29	177*	0.0	14	.	i
O=C1c2cccnc2C(Nc2ccccc2)N1Cc1ccco1 (stereo not given)	2.6	-10	2	-0.9	1.1	.	-14	3.0
CCCNC(=S)N1CCC(C(=O)c2ccc(F)cc2)CC1	1.0	4	-6	4.0	-0.8	-4	0	.
O=C(Cc1c(O)c2ccccc2[nH]c1=O)NC1CCCCCCC1	-0.1	-3	-6	0.0	?	-2	-5	1.7
COc1ccc(Nc2sc(C(=O)Nc3cccc(Cl)c3)c(N)c2C(=O)Nc2ccccc2OC)cc1	-7.5	.	8	-2.3	0.9	-6	3	.
Cc1ccc(S(=O)(=O)NCCN=C(CN2CCCC2)NS(=O)(=O)c2ccc(C)cc2)cc1	0.9	-5	.	.	0.5	-9	.	0.7
C[C@]12CCC(=O)CC1=CCC1C3CC=C(C#N)[C@@]3(C)CC[C@@]12O (stereo not given in full)	-1.6	-146	-5	5.4	-0.2	-8	1	0.7
COc1ccc([N+](=O)[O-])cc1C1NN=C(c2ccccc2O)S1 (stereo not given)	-3.4	-1	-2	2.7	-0.7	7	7	5.0
C[C@@H](NC(=O)C1(c2ccccc2)CCN(C(=O)OC(C)(C)C)CC1)C(=O)N[C@@H](C(=O)O)c1ccccc1	2.4	-1	6	2.0	0.6	5	-8	-0.3
NCCCCNCCCN	-3.9	4	-7	-0.2	0.5	0	.	-1.9
COCc1cc(C)nc(SCC(=O)Nc2ccc3c(c2)n(C)c(=O)n3C)c1C#N	-4.6	-9	0	1.3	0.2	.	-4	-3.7
CC(=O)c1cn(CC(=O)Nc2ccccc2C)c2ccccc12	-6.1	5	-10	3.8	-0.6	33	-1	2.0
COc1ccc(NC(=O)c2cc(-c3cc(C)cc(C)c3O)n[nH]2)cc1Cl	4.2	9	1	-4.9	0.9	14	15	1.4
COc1ccc2oc(=O)c(-c3csc(Nc4cccc(O)c4)n3)cc2c1	-0.7	17	4	-2.4	0.3	.	-17	-54
O=C(CC(c1ccccc1)c1ccccc1O)N1CCCC1 (stereo not given)	-1.1	5	1	-4.3	1.5	-6	-6	-1.9
Nc1ccc(S(=O)(=O)NCC(=O)OC2CCOC2=O)cc1[N+](=O)[O-] (stereo not given)	10	-4	.	.	0.8	-5	.	2.4
N#Cc1ccccc1Oc1ccc(S(=O)(=O)N2CCCCC2)cn1	5.7	-7	5	5.0	1.4	2	.	4.1
CCN(CC)c1ccc(C(=O)N2CCN(Cc3ccccc3)CC2)cc1	1.3	1	10	-1.1	0.1	-3	2	0.3
COc1ccc([C@H]2CC(=O)C=C(c3cccc(CO)c3)C2)cc1	-3.2	-7	.	.	0.6	-2	.	4.2
CN(C(=O)CSc1nc(-c2ccccc2)cn1N)C(c1ccccc1)c1ccccc1	-6.9	11	8	1.0	-0.2	17	-5	5.1
O=C(CCc1ccccc1)NNC(=O)c1ccc(Br)cc1	6.2	5	-15	-1.0	1.0	-1	6	1.7
COc1ccc2c(c1OC)C(=O)N(c1ccccn1)C2	0.2	-7	-14	0.7	-6.3	5	3	-2.4
Cc1nn(CC(=O)Nc2ccc3c(c2)nc2n3CCN(C3CCCCC3)C2)c(=O)c2ccccc12	1.6	-11	18	2.1	0.4	7	7	-7.4
Cc1ccc(CNC(=O)CCCCCNc2nc(=S)[nH]c3ccccc23)cc1	-5.3	.	8	3.6	0.0	2	-6	4.1
O=C(COc1ccccc1Cl)Nc1ccc2c(c1)C(=O)NC2=O	-0.3	-1	16	0.0	0.4	0	3	-19
COCC(=O)O[C@]1(CCN(C)CCCc2nc3ccccc3[nH]2)CCc2cc(F)ccc2[C@@H]1C(C)C	0.2	41	40	-5.8	0.4	31	18	2.7
CCOC(=O)CSc1nnc(NC(=O)c2cccc([N+](=O)[O-])c2C)s1	8.8	12	-26	1.1	-0.5	-1	22	4.7

High-throughput results as filed in PubChem BioAssay.
